Assay outcomes: PubChem BioAssay, National Center for Advancing Translational Sciences (NCATS)
VDR inh = inhibitors of human vitamin D receptor; P11473; VDR-SRC2-3 peptide fluorescence polarization, 2 h; Potency, µM, for inactives: max response, negative = inhibition, most hits filed as inhibitors; actives 0.93% (n = 400,000); AID 504847; active = well fitted inhibition curve with a large enough effect; inconclusive = small, poorly fitted or top-dose-only effect, or another doubt; inactive = no such curve, though single readings can be large or run the other way; also: series mostly up to about 120 µM
Target sequence (P11473 whole entry, looked up): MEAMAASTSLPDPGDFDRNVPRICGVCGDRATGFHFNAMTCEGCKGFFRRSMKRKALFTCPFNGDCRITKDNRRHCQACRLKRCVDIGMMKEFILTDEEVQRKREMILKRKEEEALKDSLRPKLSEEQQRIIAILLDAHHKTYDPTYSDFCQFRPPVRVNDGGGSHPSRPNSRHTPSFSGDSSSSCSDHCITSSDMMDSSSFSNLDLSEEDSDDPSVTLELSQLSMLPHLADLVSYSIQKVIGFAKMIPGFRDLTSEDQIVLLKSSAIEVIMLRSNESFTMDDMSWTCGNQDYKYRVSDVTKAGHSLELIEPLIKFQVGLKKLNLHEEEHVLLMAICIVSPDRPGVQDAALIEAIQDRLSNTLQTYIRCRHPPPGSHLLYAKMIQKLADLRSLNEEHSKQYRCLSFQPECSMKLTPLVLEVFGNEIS
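Measured by FP: displacement of SRC2-3 coactivator peptide from VDR by library compounds, following a two-hour ambient incubation.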
Active calls of the source: *; ? = inconclusive. % is scaled to controls: 0 for no effect and ±100 for the full control effect; potency is read from the fitted curve at half-maximal effect. These rows are one share of the data. The share of hits here may be higher or lower than overall.

VDR inh | structure
2% | Cc1c(NC(=O)COC(=O)C2(c3ccccc3F)CCCC2)c(=O)n(-c2ccccc2)n1C
-18% | COc1cccc(NC(=O)CSc2cc(=O)n(C)c3ccc(Cl)cc23)c1
? | S=c1[nH]c2ccc(Cl)cc2[nH]1
-15% | CCC(C)NC(=O)c1c(F)c(F)c(F)c(F)c1F (centres undefined)
-9% | CC1CN(CCOc2ccccc2C(C)C)CC(C)O1 (centres undefined)
23% | CC(=O)Nc1cccc(/C(C)=N/NC(=O)c2ccc(NS(=O)(=O)c3cccs3)cc2)c1
7% | Cc1ccc(C)c(OCc2nnc(SCC(=O)NCc3ccc4c(c3)OCO4)o2)c1
6% | CCSc1nc2c(c(=O)n1CC)SC(C)C2 (centres undefined)
16% | CCSc1ncc(Cl)c(C(=O)Nc2nc3ccc(OC)cc3s2)n1
? | O=C(C=Cc1ccccc1)CC(c1ccccc1)N1CCOCC1 (centres undefined)

VDR inh | structure
-22% | CCC(Oc1ccc(Cl)cc1)C(=O)N1CC(=O)Nc2ccccc21 (centres undefined)
-1% | CC1(C)OC2OC(COC(=O)c3ccccc3)C3OC(C)(C)OC3C2O1 (centres undefined)
0% | Cc1ccc(NC(=O)Nc2ccc3c(c2)CCC3)cc1C
-13% | CCNc1ncc2nc(-c3ccc(Cl)cc3)c(=O)n(-c3ccc(OC)cc3)c2n1
5% | CCOCCCNC(=O)CN1C(=O)CSc2ccc(S(=O)(=O)N3CCOCC3)cc21
6% | CCCNC(=O)c1ccc(N2CCC3(CC2)CC(c2ccccc2)=NO3)c(NC(=O)c2ccco2)c1
0% | COc1ccc(CNC(=O)c2cccc(N3CCCC3=O)c2)cc1
-3% | CCCCNC(=O)NS(=O)(=O)c1ccc(N)cc1
15% | CCn1c(=S)sc2c(=O)n(-c3ccccc3)c(SC)nc21
3% | Cc1ccc(OCC(=O)Nc2nc(-c3ccc(Br)cc3)ns2)cc1C

VDR inh | structure
-23% | O=C(NCCN1CCOCC1)C(=O)NCc1ccco1
-2% | CCCCOC(=O)c1ccc(NC2=NS(=O)(=O)c3ccccc32)cc1
-15% | Cc1ccc(S(=O)(=O)N2CCC(C(=O)N3CCN(c4ccccn4)CC3)CC2)cc1
4% | COc1ccc(C(=O)CSc2nnc(Cn3cnc4ccccc43)o2)cc1
-5% | O=C(NCc1cccnc1)c1ccc(NS(=O)(=O)c2cccc([N+](=O)[O-])c2)cc1
0% | COc1cccc(C(=O)N2CCCC(c3nc(-c4cccs4)no3)C2)c1 (centres undefined)
-1% | CN1CCN(c2ccc(NC(=O)COc3ccc4ccccc4c3)cc2)CC1
10% | COc1ccc(-c2c3c(=O)n(C)c(=O)n(C)c3c3n2-c2ccccc2NC3c2ccc(OC)cc2)cc1 (centres undefined)
1% | Clc1ccc(-n2ncc3c(N4CCCCCC4)ncnc32)cc1
3% | O=[N+]([O-])c1ccc2c(c1Nc1ccccc1Cl)=NC1(CCCCC1)N=2

VDR inh | structure
9% | Cc1ccc(NC(=O)C2CCC(=O)N2)cc1C (centres undefined)
-17% | COc1ccc(-c2cc(C(=O)OCC(=O)c3ccc(C)cc3)c3cccc(Cl)c3n2)cc1
2% | Cc1ccc(S(=O)(=O)N2CCCN(C(=O)c3ccc(-n4cccn4)cc3)CC2)cc1
5% | CC(C)CC(NC(=O)c1ccc(Cl)cc1)C(=O)OCc1cc([N+](=O)[O-])cc2c1OCOC2 (centres undefined)
-1% | c1ccc(Cc2noc(CN3CCC(CN4CCOCC4)CC3)n2)cc1
? | Nc1cc(S(=O)(=O)Nc2ccc(Cl)cc2)ccc1N1CCOCC1
-17% | CC(=O)N1CCN(C(=O)c2ccc(C(=O)c3ccccc3)cc2)CC1
7% | Cc1cccc2c1-c1sc(C(=O)N(C)c3cccc(C(F)(F)F)c3)cc1CO2
15% | Cc1c(N=Cc2ccc[nH]2)c(=O)n(-c2ccccc2)n1C
4% | O=[N+]([O-])c1ccc(CN2CCN(c3ccccc3Cl)CC2)o1

VDR inh | structure
-14% | CC(C)N(N=Nc1ccc([N+](=O)[O-])cc1)C(C)C
-2% | CC(C)C(=O)Nc1ccc(NC(=O)c2ccccn2)cn1
2% | C=CCc1ccc(OCCn2cccc2C=O)c(OC)c1
-24% | COC(=O)[C@@]12CCCCN1[C@H](c1ccc(-c3ccccc3)c(OC)c1)[C@H]1C(=O)N(C)C(=O)[C@H]12
3% | CCOC(=O)N1CCN(Cc2nc(-c3ccc(OC)cc3)no2)CC1
-14% | CCCCOc1ccc(CON(C(C)=O)C(C)=O)cc1Cl
-13% | CCC(C)n1c(=N)c(C(=O)NC2CCCCC2)cc2c(=O)n3ccccc3nc21 (centres undefined)
-13% | COc1ccc(CNC(=O)N[C@@H](Cc2c[nH]c3ccccc23)C(=O)O)cc1
6% | Cc1cc(C)c(OCC(=O)Nc2nc(-c3ccccn3)cs2)c(C)c1
3% | CCOc1cc(S(=O)(=O)NCc2ccccc2)c(OCC)cc1-n1cnnn1

VDR inh | structure
-8% | COc1ccccc1Cn1c(=S)[nH]c2ccccc2c1=O
5% | CCc1cc2cc(C)ccc2nc1SCC(=O)N1CC(=O)Nc2ccccc21
-14% | OCC1OC(n2cnc3c(=S)nc[nH]c32)CC1O (centres undefined)
-5% | CCCCCc1ccc(-c2ccc(C(=O)Oc3ccc(C(=O)OC)cc3)cc2)nc1
13% | CCC(=O)N1CCc2cc(S(=O)(=O)NCCC(=O)NC3CCCc4ccccc43)ccc21 (centres undefined)
4% | Cc1ccc(-n2ncc(C#N)c2/N=C/N2CCN(C)CC2)cc1
-12% | COc1ccc(CCN(C(=O)Cn2nnc3ccccc32)C(C(=O)NCC2CCCO2)c2ccncc2)cc1OC (centres undefined)
-5% | COc1ccc(NC(=S)N2CCN(C)CC2)cc1
1% | COc1cc(OC)cc(C(=O)Nc2cccnc2)c1
2% | NC(=O)C1CC(=O)N(c2ccc(OCc3ccc(Cl)cc3Cl)cc2)C1 (centres undefined)

VDR inh | structure
13% | COc1ccccc1NC(=O)C1CCN(c2ncccn2)CC1
-5% | Cc1ccc(C)c(S(=O)(=O)Nc2ccc(O)cc2)c1
-10% | CC1=CCC2C(=O)N(c3cccc(C(=O)Nc4ccccc4Cl)c3)C(=O)C2C1 (centres undefined)
-11% | COc1ccc(CN2CCCC(CO)(Cc3ccc(F)cc3F)C2)cc1 (centres undefined)
4% | COc1ccccc1C(=O)Oc1ccc(C(C)(C)C)cc1
2% | Cc1ccc(S(=O)(=O)N2CCN(C)CC2)cc1
-14% | Cc1cc(-c2ccc(C(C)C)c(S(=O)(=O)NCc3ccco3)c2)on1
-11% | S=c1[nH]nc(Cc2c[nH]c3ccccc23)o1
0% | CC(=O)c1c(C)[nH]c(C(=O)Nc2cc(C)cc(C)c2)c1C
1% | COc1ccccc1NC(=S)N1C2CCC1CC(NC(=O)NC13CC4CC(CC(C4)C1)C3)C2 (centres undefined)

VDR inh | structure
? | CCn1nnnc1NC(=O)c1cc(OC)c(OC)c(OC)c1
? | Cc1nc(S/C(=C\c2ccc(-c3ccc(C(=O)O)c(Cl)c3)o2)C(=O)O)n[nH]1
7% | Cc1cc(C)cc(N(CC(=O)NCCSc2ccccn2)S(=O)(=O)c2ccccc2)c1
6% | Cc1ccc(Cn2c(=O)n(Cc3ccc(C(=O)NC4CCN(Cc5ccccc5)CC4)cc3)c(=O)c3ccccc32)cc1
-10% | COc1ccccc1CN(C)C(=O)COC(=O)c1cc(C)oc1C
-19% | CC1CCCCC1NC(=O)CCn1c(=O)oc2ccccc21 (centres undefined)
18% | CCn1c(=O)c(=O)[nH]c2cc(C(=O)NCc3ccc(F)cc3)ccc21
-11% | COc1cc(C(=S)N2CCOCC2)cc(OC)c1O
-5% | CC(Sc1ccc2c(c1)OCCO2)C(=O)Nc1ccc2c(c1)OCO2 (centres undefined)
-12% | Cc1cccc(OCC(=O)Nc2ccccc2N2CCCCC2)c1C

VDR inh | structure
-3% | CCn1c(=O)c2sccc2n2c(CCCC(=O)Nc3ccc(OC)c(OC)c3)nnc12
10% | COc1ccc(NC(=O)C2CCCN(c3nn4c(=O)cc(C)nc4s3)C2)cc1 (centres undefined)
-8% | CSc1cccc(NC(=O)/C=C/c2cccc(Cl)c2)c1
-16% | CNS(=O)(=O)c1cccc(C(=O)OCCCOC(=O)c2cccc(S(=O)(=O)NC)c2)c1
11% | COc1ncc2nc(C)c(=O)n(CCc3ccccc3)c2n1
3% | CC(C)c1nnc(NC(=O)CCC(=O)N2CCN(c3cccc(Cl)c3)CC2)s1
0% | O=C(NCCCN1CCCC1=O)C(=O)NCC1OCCN1S(=O)(=O)c1ccc(Br)cc1 (centres undefined)
-9% | COc1ccccc1NS(=O)(=O)c1cc(C(=O)N2CCN(C(=O)c3ccco3)CC2)ccc1F
-3% | O=C(COC(=O)C1=NN(c2ccccc2)C(=O)CC1)Nc1nc(-c2ccc(F)cc2)cs1
-1% | CC1=C(c2ccc(C)c(C)c2)S(=O)(=O)N=C1N1CCC(C(=O)NCc2ccc(C)o2)CC1

VDR inh | structure
-22% | CC(C)(CC(=O)c1ccccc1)CC(=O)c1ccccc1
10% | COc1ccc2[nH]cc(CCNC(=O)Nc3c(C)cccc3C)c2c1
-23% | CC(=O)N(C)c1ccc(NC(=O)N2CCOCC2)cc1
-4% | CN(C(=O)c1ccc2c(c1)OCCO2)c1c(N)n(Cc2ccccc2)c(=O)[nH]c1=O
-13% | O=C1NCCc2cc3c(cc21)OCO3
-6% | Cc1ccc(NC(=O)CN2C(=O)c3ccccc3S2(=O)=O)cc1C
-8% | COc1ccc(CCNC(=O)CCn2c(=O)c3ccccc3n(Cc3c(C)cc(C)cc3C)c2=O)cc1OC
-10% | CC1=Nc2ccccc2N=C(NC(=O)CN2CCN(c3ccccc3)CC2)C1c1ccccc1 (centres undefined)
-7% | CCC1=NN=C(c2ccc(F)cc2)C(c2c[nH]c3ccccc23)N1O (centres undefined)
9% | Cc1ccc(-c2[nH]c3cc(C(=O)NCCCn4ccnc4)ccc3c(=O)c2O)cc1

Ordered by molar mass (rising): part of the list above
VDR inh | structure
-13% | O=C1NCCc2cc3c(cc21)OCO3
-23% | CC(=O)N(C)c1ccc(NC(=O)N2CCOCC2)cc1
-22% | CC(C)(CC(=O)c1ccccc1)CC(=O)c1ccccc1
11% | COc1ncc2nc(C)c(=O)n(CCc3ccccc3)c2n1
-8% | CSc1cccc(NC(=O)/C=C/c2cccc(Cl)c2)c1
10% | COc1ccc2[nH]cc(CCNC(=O)Nc3c(C)cccc3C)c2c1
-6% | Cc1ccc(NC(=O)CN2C(=O)c3ccccc3S2(=O)=O)cc1C
10% | COc1ccc(NC(=O)C2CCCN(c3nn4c(=O)cc(C)nc4s3)C2)cc1 (centres undefined)
9% | Cc1ccc(-c2[nH]c3cc(C(=O)NCCCn4ccnc4)ccc3c(=O)c2O)cc1
-4% | CN(C(=O)c1ccc2c(c1)OCCO2)c1c(N)n(Cc2ccccc2)c(=O)[nH]c1=O
3% | CC(C)c1nnc(NC(=O)CCC(=O)N2CCN(c3cccc(Cl)c3)CC2)s1
-3% | CCn1c(=O)c2sccc2n2c(CCCC(=O)Nc3ccc(OC)c(OC)c3)nnc12
-10% | CC1=Nc2ccccc2N=C(NC(=O)CN2CCN(c3ccccc3)CC2)C1c1ccccc1 (centres undefined)
-1% | CC1=C(c2ccc(C)c(C)c2)S(=O)(=O)N=C1N1CCC(C(=O)NCc2ccc(C)o2)CC1
-16% | CNS(=O)(=O)c1cccc(C(=O)OCCCOC(=O)c2cccc(S(=O)(=O)NC)c2)c1
-9% | COc1ccccc1NS(=O)(=O)c1cc(C(=O)N2CCN(C(=O)c3ccco3)CC2)ccc1F
-8% | COc1ccc(CCNC(=O)CCn2c(=O)c3ccccc3n(Cc3c(C)cc(C)cc3C)c2=O)cc1OC

(next part)
VDR inh | structure
-7% | CC1CN=C(Nc2cccc(S(=O)(=O)N(C)C)c2)S1 (centres undefined)
-10% | O=C(CCC(=O)Nc1ccc(Cl)cc1Cl)NNC(=O)Nc1ccccc1
-1% | CC(C)c1ccc2[nH]c(O)c(N=NC(=S)NCCc3ccccc3)c2c1
2% | Cc1cc(C)c2c(c1)CC(C)(C)CC2=O
-2% | CCc1nc(SCC(=O)c2c[nH]c3ccccc23)n[nH]1
-1% | COc1ccc(Nc2ccnc3ccccc23)cc1
12% | COc1ccccc1OCc1cc(C(=O)N(C)CCC2CCCCO2)no1 (centres undefined)
6% | CCOC(=O)c1cccc(NS(=O)(=O)c2cnc[nH]2)c1
1% | Cc1ccc2nsnc2c1NS(=O)(=O)c1c(C)ccc2nsnc12
-23% | CCOC(=O)N1CCN(S(=O)(=O)c2ccc(C)c(C(=O)NC3CCCCC3)c2)CC1

VDR inh | structure
7% | O=C(O)c1cccc(Oc2ccccc2[N+](=O)[O-])c1
-17% | CCOC(=O)NC(=O)CSc1nnc(SCCC(=O)O)s1
-1% | Cc1ccc(NC(=O)COC(=O)Cn2cnc3c2c(=O)n(C)c(=O)n3C)c(Cl)c1
11% | CCOc1ccc(-c2cc(N)n(S(=O)(=O)c3cccc4nsnc34)n2)cc1
-9% | O=C(NNC(=O)c1cccc2ccccc12)c1cccc(Cl)c1
7% | CN1CCc2c(sc(NC(=O)C3CCCN3S(=O)(=O)c3ccc(Cl)s3)c2C(N)=O)C1 (centres undefined)
-19% | Cc1nc(C)c(CC(=O)N2CCc3c([nH]c4ccccc34)C2c2ccccn2)s1 (centres undefined)
-5% | O=C(NNC(=O)c1ccc(Br)s1)c1cccc(S(=O)(=O)N2CCCC2)c1
10% | CC12CCC(C(=O)N(c3nccs3)C1=O)C2(C)C (centres undefined)
2% | CN(C(=O)COC(=O)C1c2ccccc2Oc2ccccc21)C1CCS(=O)(=O)C1 (centres undefined)

VDR inh | structure
-2% | Nc1nc(Cl)cc(NCCc2ccc(O)cc2)n1
3% | CCCNC(=O)c1c(CSc2ccccc2)noc1C(=O)NCc1ccccc1
1% | O=C(CSc1nnc(Cc2ccccc2)o1)NCCN1C(=O)CSC1=O
-14% | COc1ccc(OC)c(/C=N/NC(=O)c2ccc[n+](CC(=O)c3ccccc3)c2)c1
